Mtb H37Rv – Mycobacterium tuberculosis H37Rv growth inhibition, putative kinase inhibitor library, confirmatory dose response (AID 2842) | one-dose inhibition, % at 10 µg/mL; IC90 in µg/mL for titrated hits | actives 5.2% (n = 24,000) | M. tuberculosis H37Rv growth inhibition; higher % means a stronger effect; some inactives read as strong as hits;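 active = confirmed in a dose series; inconclusive = mostly over 85% at the one dose but not retested; inactive = below 85% or not confirmed; about a fifth of its hits are not listed in these tables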;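 note: bacteria incubated one week before Alamar blue readout; 0% = bacteria only wells and 100% = bacteria with high antibiotic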
Active calls of the source: *; u = inconclusive. This is a subset, so the mix of outcomes need not match the whole.

Molecule	Mtb H37Rv
O=C(Cc1cccc2ccccc12)Nc1nnc(-c2ccc(Cl)cc2)s1	27%
CC(=O)c1ccc(NC(=O)CSc2nnc(-c3c[nH]c4ccccc34)n2C)cc1	-1%
Cc1ccc(Cn2c(Sc3nnc(C)s3)nc3c2c(=O)[nH]c(=O)n3C)cc1	-6%
CC(=O)c1ccc(C(=O)Nc2nnc(-c3cc(Cl)ccc3Cl)o2)cc1	94µg/mL*
CCOc1ccc(C(=O)Nc2c3c(nn2C(C)(C)C)CS(=O)C3)cc1 (configuration not stated)	7%
COc1ccccc1C(=O)Nc1sc2c(c1C(N)=O)CCC(C)C2 (configuration not stated)	10%
CCc1ccc(NC(=O)c2oc3ccccc3c2NC(=O)CC(c2ccccc2)c2ccccc2)cc1	-2%
NC(=O)CSc1cn(CCNC(=O)c2ccc(Cl)cc2)c2ccccc12	3%
CCOC(=O)Cc1csc(NC(=O)/C=C/c2ccc([N+](=O)[O-])cc2)n1	1%
CCOC(=O)c1nn(-c2ccc(Cl)cc2)c(=O)c2c(NC(=O)c3cccc(C(F)(F)F)c3)scc12	1%

(more compounds)
Molecule	Mtb H37Rv
Cc1cccc(Cn2c(SCC(N)=O)nc3c2c(=O)[nH]c(=O)n3C)c1	14%
O=C(COc1ccccc1)Nc1nc2c(s1)CCCC2	63%
Cc1cc(C)nc(-n2ncc(C(=S)Nc3ccccc3)c2C)n1	-16%
CCOc1cc(C(=O)Nc2c3c(nn2-c2ccc(C)cc2)CS(=O)C3)cc(OCC)c1OCC (configuration not stated)	-5%
Cc1cc(C)cc(C(=O)Oc2coc(CSc3nccc(C)n3)cc2=O)c1	-11%
Cc1c(O)ccc2cc(S(=O)(=O)c3ccc(F)cc3)c(=O)oc12	-14%
CCn1c2c(c(=O)[nH]c1=O)C(c1ccccc1)C1=C(COC1=O)N2 (configuration not stated)	5%
COc1ccc(NC(=O)N2c3ccccc3CC2C(N)=O)c(OC)c1 (configuration not stated)	13%
Cc1cc(C)cc(NS(=O)(=O)c2c[nH]c(=O)[nH]c2=O)c1	1%
Cc1ccc2nc(N(Cc3cccnc3)C(=O)CN3C(=O)c4ccccc4C3=O)sc2c1	9%

3 records picked at random from those above:
Molecule	Mtb H37Rv
Cc1c(O)ccc2cc(S(=O)(=O)c3ccc(F)cc3)c(=O)oc12	-14%
Cc1ccc(Cn2c(Sc3nnc(C)s3)nc3c2c(=O)[nH]c(=O)n3C)cc1	-6%
O=C(Cc1cccc2ccccc12)Nc1nnc(-c2ccc(Cl)cc2)s1	27%

Continuation:
Molecule	Mtb H37Rv
Cc1ccc(C(=O)Nc2ccc3c(c2)N(S(=O)(=O)c2cccs2)CCC3)cc1[N+](=O)[O-]	-1%
O=C(CSc1nnc2sc3ccccc3n12)Nc1ccccc1Cl	3%
CN(C)CCNc1nc2c(c(=O)[nH]c(=O)n2C)n1Cc1ccc(Cl)cc1	-3%
COc1ccc2nc(Nc3nc4cc5c(cc4s3)OCCO5)sc2c1	65%
CC(=O)Nc1ccc(N2C(=O)/C(=C\c3ccco3)SC2=S)cc1	-8%
COc1ccc(C(=O)Nc2c(N)nc(SCC(N)=O)[nH]c2=O)cc1OC	-4%
COc1cccc(C(=O)NCCc2cc3c(OC)ccc(OC)c3[nH]c2=O)c1	8%
NC(=O)CSc1ncnc2ccccc12	2%
O=C(CSc1nnc2ccccn12)Nc1ccccc1	-2%
O=c1ccc(-c2ccc(Cl)cc2)nn1CCNS(=O)(=O)c1cccnc1	0%

The listing continues.
Molecule	Mtb H37Rv
CC(=O)Nc1cccc(NC(=O)Cn2cnc3c(cnn3-c3cccc(Cl)c3)c2=O)c1	-6%
CCN(CC)S(=O)(=O)c1ccc(C(=O)NCCc2cc3ccc(OC)cc3[nH]c2=O)cc1	-8%
COC(=O)CSc1nc2[nH]ncc2c(=O)[nH]1	-10%
COc1cccc(N2CC(NC(=O)Nc3cccc(Br)c3)CC2=O)c1 (configuration not stated)	12%
COc1ccc(NC(=O)CSc2nc(-c3ccccc3)c3ccccc3n2)c(OC)c1	5%
Cc1nnc(NC(=O)c2ccc(Cl)c([N+](=O)[O-])c2)s1	19%
Cc1ccc2cc(CCNC(=O)C(C)(C)Oc3ccc(Cl)cc3)c(=O)[nH]c2c1	23%
CC1CCN(C(=O)CSc2ccc3nnc(-c4cccc(F)c4)n3n2)CC1	-6%
Cc1c(Cc2ccc3c(c2)OCO3)sc(NC(=O)C(c2ccccc2)c2ccccc2)c1C#N	8%
COc1ccc(C(=O)c2cn(Cc3ccccc3F)c3ccc(C)cc3c2=O)cc1	28%

Continued.
Molecule	Mtb H37Rv
Cc1ccc(-c2nnc(NC(=O)c3ccc4c(c3)OCO4)s2)cc1	-11%
O=C(CSc1nnc2ccc(-c3cccnc3)nn12)Nc1ccccc1F	-12%
Cc1cccc(NC(=O)CSc2nc3c(c(=O)n2C)SC(C)C3)c1 (configuration not stated)	3%
CCOC(=O)c1cc([N+](=O)[O-])sc1NC(=O)c1ccc(S(=O)(=O)N(C)C)cc1	-7%
CC1CCCCN1S(=O)(=O)c1ccc(/C(O)=C(\C#N)c2nc3ccccc3n2C)cc1 (configuration not stated)	9%
O=C(CSc1nc2c(c(=O)n1-c1ccccc1)SCC2)Nc1ccccc1F	4%
CC(=O)c1ccc(C(=O)Nc2nc3c(ccc4ccccc43)s2)cc1	9%
O=C(NCCO)C(=O)Nc1cc2c3c(c1)CC(=O)N3CCC2	-10%
CCCc1cc2c(=O)c(-c3cc4ccccc4o3)coc2cc1O	48%
Cc1ccc(C)c(-c2nnc(NC(=O)Cc3cccc4ccccc34)o2)c1	6.3µg/mL*

Of the compounds above, these have a nitro group on carbon:
Molecule	Mtb H37Rv
CCOC(=O)Cc1csc(NC(=O)/C=C/c2ccc([N+](=O)[O-])cc2)n1	1%
Cc1ccc(C(=O)Nc2ccc3c(c2)N(S(=O)(=O)c2cccs2)CCC3)cc1[N+](=O)[O-]	-1%
Cc1nnc(NC(=O)c2ccc(Cl)c([N+](=O)[O-])c2)s1	19%
CCOC(=O)c1cc([N+](=O)[O-])sc1NC(=O)c1ccc(S(=O)(=O)N(C)C)cc1	-7%

(further entries)
Molecule	Mtb H37Rv
Cn1c(=O)c2c(SCC(=O)N3CCCc4ccccc43)ccnc2n(C)c1=O	40%
Cc1ccc(Cc2cnc(NC(=O)C3Cc4ccc(C)cc4C(=O)O3)s2)cc1 (configuration not stated)	-5%
CSc1cccc(-c2nnc(NC(=O)c3ccc(C(C)=O)cc3)o2)c1	80%
O=C(Nc1nc(-c2cccc3ccccc23)cs1)c1ccc(N2C(=O)CCC2=O)cc1	12%
O=c1/c(=C\c2ccccc2)sc2nc(-c3ccncc3)nn12	-19%
Cc1ccc(C)c(-c2nnc(NC(=O)c3cc(Cl)sc3Cl)o2)c1	2.2µg/mL*
Cc1ccc(C)c(C(=O)Nc2nnc(-c3ccc(C)c(C)c3)o2)c1	2.7µg/mL*
COc1ccc(-n2nc3c(c2NC(=O)Cc2cccc(C)c2)CS(=O)C3)cc1 (configuration not stated)	4%
COc1ccc(-c2nnc3ccc(SCC(=O)N4CCCc5ccccc54)nn23)cc1OC	1%
O=C(Nc1c(C(=O)Nc2ccccc2)oc2ccccc12)c1cccc([N+](=O)[O-])c1	4%

Next compounds
Molecule	Mtb H37Rv
Cc1ccc(-n2nc3c(c2NC(=O)CC(C)C)CS(=O)C3)cc1 (configuration not stated)	-2%
COc1ccc(-n2c(SCC(=O)NCc3ccc(C)cc3)nc3c([nH]c4ccccc43)c2=O)cc1OC	29%
N#C/C(=C/c1ccc(O)c([N+](=O)[O-])c1)c1nc(-c2ccc([N+](=O)[O-])cc2)cs1	5%
N#CC1=C(N)Oc2cc(O)ccc2C1c1cccc([N+](=O)[O-])c1 (configuration not stated)	4%
Nc1nc(SCC(=O)Nc2cccc3ccccc23)[nH]c(=O)c1NC(=O)c1cccs1	-12%
Clc1cccc(Nc2ncnc3nc[nH]c23)c1	15%
CC(=O)c1ccc(NC(=O)c2cn(-c3ccccc3)nc2-c2ccc([N+](=O)[O-])cc2)cc1	1%
NC(=O)CSc1ccc(-c2cccc([N+](=O)[O-])c2)nn1	40%
CCOC(=O)c1csc(Nc2nc3cc4c(cc3s2)OCO4)n1	16%
COc1cc(-c2cc(=O)c3cc(C)ccc3o2)cc(OC)c1OC	16%

Next part:
Molecule	Mtb H37Rv
Cc1ccc(C(=O)Nc2nnc(-c3ccccc3)s2)cc1	6%
CCc1ccc(NC(=O)c2oc3ccccc3c2NC(=O)CC2CCCCC2)cc1	-7%
COc1ccc2c(c1)c(=O)c(C(=O)c1ccc(C)cc1)cn2Cc1ccccc1OC	8%
O=c1c2ccccc2nc2c3ccccc3c(NCCO)nn12	-3%
O=C1CC(c2nc3ccccc3n2Cc2ccccc2Cl)CN1Cc1ccccc1 (configuration not stated)	84%
CCOC(=O)c1c(C)oc2c1cc(NS(=O)(=O)c1cccc3cccnc13)c1ccccc12	4%
Nc1c(C(=O)Nc2cccc(Cl)c2)sc2nc3c(cc12)C(=O)CCC3	-6%
Cc1ccc(NC(=O)CSC2=NC(C)(C)N=C2c2ccccc2)c(C)c1	9%
Cc1ccc2nc3c(cc(C(=O)NCC4CCCO4)c(=N)n3CCCn3ccnc3)c(=O)n2c1 (configuration not stated)	-14%
Cc1cccc(NC(=O)CSc2nnc(-c3ccco3)n2-n2cccc2)c1	0%

Continuation.
molecule,Mtb H37Rv
Cc1ccc2cc(CCNC(=O)c3c(F)cccc3Cl)c(=O)[nH]c2c1C,9%
CNC(=O)CSc1nc(N)c(NC(=O)c2ccccc2)c(=O)[nH]1,6%
Cc1cc(C)c2nc(NNC(=O)c3cc(-c4cccs4)nc4ccccc34)sc2c1,25µg/mL*
O=C(Nc1nc(-c2ccc(Br)cc2)cs1)c1ccc(S(=O)(=O)N2CCCC2)cc1,-4%
O=C(Nc1nnc(-c2ccco2)o1)c1ccc(Br)cc1,u
CCC(=O)Nc1cc(C)c2c(=O)oc3ccccc3c2n1,6%
O=C(Nc1nc(-c2nc3ccccc3s2)cs1)c1nc2ccccc2s1,-6%
O=C(Nc1nnc(-c2ccc3c(c2)OCCO3)o1)c1sc2ccccc2c1Cl,97%
O=C(CSc1nc2c(c(=O)n1-c1ccc(Br)cc1)SCC2)NC1CCCCC1,39%
Cc1ccc(NC(=O)CSc2nnc(Cn3c(=O)sc4ccccc43)n2C)c(C)c1,-2%
CCC(=O)Nc1ccc2c(c1)C(=O)NC2=O,-11%
CCSc1ccccc1C(=O)Nc1sc2c(c1C(N)=O)CCN(C(C)=O)C2,56%
CN(C)c1ncnc2c1cnn2-c1ccc(Cl)c(Cl)c1,11%
CCOc1cc(C(=O)Nc2nnc(-c3ccc(Cl)cc3Cl)s2)cc(OCC)c1OCC,-2%
CCCc1nc(SCC(=O)Nc2cccc(C)c2C)c2c(=O)n(C)c(=O)n(C)c2n1,7%
Cc1ccc(N2C(=O)C(Cc3ccc(Cl)cc3Cl)S/C2=C(/C#N)C(=O)NCCc2ccccc2)cc1 (configuration not stated),5%
COc1ccccc1C(=O)Nc1cc2c3c(c1)C(C)C(=O)N3CCC2 (configuration not stated),3%
Cc1nnc(NC(=O)CSc2nnc(CNC(=O)c3cc(Cl)ccc3Cl)n2-c2ccccc2)s1,-2%
CCOC(=O)c1nn(-c2ccccc2)c(=O)c2c(NC(=O)c3c(OCC)ccc4ccccc34)scc12,-3%
CCOc1ccc(-c2nnc3c4cc5c(cc4n(Cc4cccc(OC)c4)cc2-3)OCO5)cc1,4%

Further structures:
molecule,Mtb H37Rv
Cc1cc(OC(=O)CCCc2ccccc2)c([N+](=O)[O-])c(=O)[nH]1,-10%
O=C(Nc1cc2c3c(c1)CCC(=O)N3CCC2)C(=O)NC1CC1,4%
Cc1cccc(NC(=O)NCc2ccc3c(c2)cc(C)n3C)c1,-4%
COc1cccc(-n2c(SCC(=O)N3CCC(C)CC3)nc3c([nH]c4ccccc43)c2=O)c1,6%
CCOc1ccc(NC(=O)c2oc3ccccc3c2NC(=O)c2cc3ccccc3oc2=O)cc1,71%
CCc1ccc2nc(Nc3nc4ccc(NC(C)=O)cc4s3)sc2c1,-3%
COc1ccc(NC(=O)CSc2nccn(-c3ccc(Cl)cc3)c2=O)cc1OC,-9%
O=C(NNc1ncnc2c1cnn2-c1ccccc1)c1ccc(Cl)cc1,66%
COc1ccc(NC(=O)c2oc3ccccc3c2NC(=O)CCc2ccccc2)c(OC)c1,1%
CCN1CCc2c(sc(NC(=O)c3ccccc3)c2C(N)=O)C1,2%
O=C(Cc1cc(=O)[nH]c(=O)[nH]1)N1CCN(C(=O)c2ccco2)CC1,-7%
Cc1cccc(NC(=O)CSc2nc(N)c(NC(=O)c3ccc(F)cc3)c(=O)[nH]2)c1C,-3%
O=C(NCc1nnc(SCC(=O)N2CCN(c3ccccc3)CC2)o1)c1c(F)cccc1F,-9%
CC(=O)N1CCc2c(sc(NC(=O)c3ccc(C)cc3)c2C(N)=O)C1,8.9µg/mL*
CCCCOc1ccc(C(=O)Nc2sc3c(c2C(N)=O)CCN(CC)C3)cc1,77%
O=C(CSc1ccc2nnc(-c3ccc(Cl)cc3)n2n1)N1CCCCCC1,-4%
COc1cccc(C(=O)Nc2ccc(N3CCCCS3(=O)=O)cc2)c1OC,8%
NC(=O)CSc1cn(CCNC(=O)c2ccccc2)c2ccccc12,-11%
COC(=O)/C(C1=NC(=NC(=O)c2cccnc2)c2ccccc21)=C(/C)O,-1%
COC(=O)c1ccc2nc(NC(=O)c3ccc(C)cc3C)sc2c1,-3%

Continuation:
molecule,Mtb H37Rv
Clc1cc(Cl)c2nc(N3CCc4ccccc4C3)sc2c1,4%
N#C/C(=C\c1ccc(C(=O)O)cc1)c1nc2ccccc2s1,-16%
CC(C)c1nnc(NC(=O)Cc2cccc3ccccc23)s1,2%
CC1=C(C(=O)Nc2ccccc2C)C(c2ccc(C)o2)n2c(s/c(=C3\C(=O)Nc4ccccc43)c2=O)=N1 (configuration not stated),4%
